CtBP-E1A inh: qHTS Assay for Inhibitors of the CtBP/E1A Interaction | CtBP / adenovirus E1A interaction (AlphaScreen) | AlphaScreen GST-E1A/His-CtBP binding, 1536-well; active compounds read low; control for the full effect not named in the record | activity change, % (test concentration not listed) | 340,000 compounds, 0.49% hits | AID 651724, 2012; in the data active means activity change below about -65%; inconclusive means about -30% to -65%; inactive means above about -30%; also: % is scaled to controls: 0 for no effect and ±100 for the full control effect
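Steps: dispense buffer (Tris pH 8.0, NaCl 300 mM, TCEP 1 mM, BSA, Tween 20); add 5X protein mix (GST-E1A, His-CtBP, 125 nM each); pin 23 nL compound; 2 h at 37 °C, dark; add 5X beads (50 ug/mL); 1 h; read.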
gsp ag: qHTS for Agonist of gsp, the Etiologic Mutation Responsible for Fibrous Dysplasia/McCune-Albright Syndrome: qHTS | gsp mutant cells, cAMP HTRF, 30 min; control for the full effect not named in the record | Potency, µM (highest dose often 76.9 µM), for the others: top-dose activation (cAMP increase), hits mostly activators | 340,000 compounds, 0.13% hits; active = well fitted activation curve with a large enough effect; inconclusive = small, poorly fitted or top-dose-only effect, or another doubt; inactive = no such curve, though single readings can be large or run the other way; cell line not stated here;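 also: phosphodiesterase inhibitor Ro 20-1724 added with compounds to block cAMP breakdown; potency is read from the fitted curve at half-maximal effect; nearly all actives have a fitted effect of over 60% in size; about a fifth of the inactives were tested at one dose only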
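Cells in DMEM/10% FBS with G418 were pretreated with compounds in DMSO plus […] (300 uM stock) for 30 min at 37C. cAMP was measured by HTRF (cAMP-d2 plus anti-cAMP antibody-K) after 30 min at room temperature.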
D2 PAM: Beta-Arrestin HTS for Positive Allosteric Modulators of the Human D2 Dopamine Receptor: Potentiators. D(2) dopamine receptor (Homo sapiens), P14416. DiscoveRx D2 beta-arrestin cells, luminescence, 90 min; 100% = 57 uM dopamine signal. potentiation, % (no concentration beside the values). 360,000 compounds, 0.23% hits. AID 624464, 2012; active = potentiation of 50% or more; inconclusive = 30% to 50%; inactive = 30% or less;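 also: compound concentration not given in the record; tested on top of an EC20 dose of dopamine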
Target sequence (P14416 whole entry, looked up): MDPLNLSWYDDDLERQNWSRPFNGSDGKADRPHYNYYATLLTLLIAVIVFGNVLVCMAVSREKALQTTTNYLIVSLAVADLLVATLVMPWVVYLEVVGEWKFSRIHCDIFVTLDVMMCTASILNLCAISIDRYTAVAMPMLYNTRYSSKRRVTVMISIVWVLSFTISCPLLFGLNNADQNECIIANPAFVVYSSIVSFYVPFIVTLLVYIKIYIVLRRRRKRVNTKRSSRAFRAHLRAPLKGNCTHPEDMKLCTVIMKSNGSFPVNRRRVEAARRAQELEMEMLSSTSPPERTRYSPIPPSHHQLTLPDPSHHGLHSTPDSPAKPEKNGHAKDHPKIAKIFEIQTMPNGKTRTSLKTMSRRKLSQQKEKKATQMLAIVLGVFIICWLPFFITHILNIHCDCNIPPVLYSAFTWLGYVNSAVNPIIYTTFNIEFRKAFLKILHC
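PathHunter D2 cells, attached overnight at 37 deg C, received compound in DMSO plus dopamine at EC20 (50 nM final) for 90 min at 37 deg C. Beta-arrestin recruitment was read as luminescence after 1 h with detection reagent at ambient temperature.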
Six1-Eya2 inh: qHTS Assay for Inhibitors of the Six1/Eya2 Interaction | Homeobox protein SIX1 (Homo sapiens) + Protein phosphatase EYA2 (Homo sapiens), … | AlphaScreen GST-Six1/His-Eya2 binding, biochemical; active compounds read low; control for the full effect not named in the record | activity change, % (no concentration beside the values) | 360,000 compounds, 0.56% hits; in the data active = activity change below about -65%; inconclusive = about -30% to -65%; inactive = above about -30%; also: % is scaled to controls: 0 for no effect and ±100 for the full control effect
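Six1/Eya2 binding was read as AlphaScreen signal after compounds were pinned into GST-Six1 plus His-tagged Eya2 (5X stock 250/500 nM) in pH 8.0 Tris/NaCl/TCEP buffer, beads added, then incubated 1 h, 37 C, dark.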
gsp antagonist: qHTS for Antagonists of gsp, the Etiologic Mutation Responsible for Fibrous Dysplasia/McCune-Albright Syndrome: qHTS. gsp-mutant cells, cAMP HTRF, 30 min; control for the full effect not named in the record. Potency, µM (highest dose often 76.9 µM), for the others: top-dose activity change, negative = inhibition, most hits filed as inhibitors. 340,000 compounds, 0.4% hits; active = falling curve of any shape with a large fitted effect; inconclusive = falling curve, mostly with a smaller effect; inactive = flat or rising curve; cell line not stated here;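 also: intracellular cAMP measured with PDE inhibitor Ro 20-1724 present during compound exposure; potency is read from the fitted curve at half-maximal effect; % is scaled to controls: 0 for no effect and ±100 for the full control effect; nearly all actives have a fitted effect of over 65% in size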
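Cells, 2000/well, grown 16–24 h in DMEM 10% FBS with 0.5 mg/ml G418, then compounds plus […] (300 uM addition stock), 30 min at 37C. cAMP read by HTRF (cAMP-d2 and anti-cAMP antibody-K in lysis buffer) after 30 min RT.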
D2 agonist: Beta-Arrestin HTS for Positive Allosteric Modulators of the Human D2 Dopamine Receptor: Agonists. DiscoveRx PathHunter D2 beta-arrestin, luminescence, 90 min; 100% = 57 uM dopamine signal. 360,000 compounds, 0.084% hits. AID 624465, 2012. activation, % (no concentration beside the values). D(2) dopamine receptor (Homo sapiens), P14416; in the data active = activation above about 40%; inconclusive = about 15% to 40%; inactive = below about 15%; also: compound concentration not given in the record; the text of the record calls up to 30% inactive
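DiscoveRx PathHunter D2 beta-arrestin cells (2,100/well) attached overnight, then compound-stimulated 90 min at 37 C in HBSS/10 mM HEPES/0.1% Tween-20 buffer; beta-galactosidase complementation read by luminescence after 1 h at ambient temperature. Dopamine 57 uM final (EC100) as control.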
* = called active by the depositor; ? = inconclusive; . = no result given; [ ] = another dose, or the depositor's remark.

Each structure is followed by: CtBP-E1A inh	gsp ag	D2 PAM	Six1-Eya2 inh	gsp antagonist	D2 agonist
> Cn1c(=O)c2c(nc(N3CCN(C(=O)c4ccco4)CC3)n2CCSc2ncccn2)n(C)c1=O
→ 5.1	23.1%	-3.1	-4.1	-1.4%	-1.5
> COc1ccc(C(=O)NCC(=O)N/N=C/c2ccc(C)o2)cc1OC
→ -13.0	5.3%	-10.0	-3.6	-2.0%	-1.8
> COc1ccc(OCc2cc(C(=O)NC(C)Cc3ccccn3)no2)c(Cl)c1 (stereo not given)
→ -7.6	-43.6%[inhibitor]	-12.1	12.6	-5.5%	8.6
> CCCN=C(N)/C(C(=O)OCC)=C(\O)c1ccc(OC)cc1
→ -0.8	24.0%	-1.6	0.4	-8.4%	-5.7
> CC(C)(C)NC(=O)NC(=O)CN1CCN(c2ccccc2)CC1
→ 5.2	-40.5%[inhibitor]	-5.1	-1.0	-16.5%	1.7
> O=C(Nc1ccc(S(=O)(=O)N2CCCCC2)cc1)C1CC1
→ -17.4	-30.7%[inhibitor]	-3.5	1.6	6.2%	-2.9
> Cc1ccc(CCNC(=O)C23CN(Cc4ccccc4)CC2C(c2cccc([N+](=O)[O-])c2)=NO3)cc1 (stereo not given)
→ -23.6	.	-5.5	-16.4	-7.3%	-1.6
> CCN(CC)c1ccc([C@H]2[C@@H]3CCCC[C@]3(O)CCN2CC(=O)NCc2ccco2)cc1
→ 0.5	1.6%[15.4 µM]	0.7	1.1	-28.2%	-3.9
> O=C(C1CCCO1)N1CCN(C(=S)Nc2cccc(Cl)c2)CC1 (stereo not given)
→ 0.0	-6.2%	-3.2	4.1	3.1%	-1.9
> CC(C)(C)OC(=O)N1CCC2(CC1)Oc1ccc(F)cc1C(=O)C21CC(c2cccnc2)=NO1 (stereo not given)
→ -13.9	.	-13.1	2.7	-11.4%	0.4
> C=CC[C@@H](CC(=O)N[C@H](CO)Cc1ccccc1)C(=O)N[C@@H](COC(=O)[C@H](CC=C)CC(=O)OC(C)(C)C)Cc1ccccc1
→ .	-1.7%	-3.8	0.8	-18.6%	-1.6
> CCOC(=O)N1CCN(C(=O)C2CCC(=O)N(Cc3ccc(Cl)cc3)C2)CC1 (stereo not given)
→ 8.4	5.3%[15.4 µM]	13.7	-0.9	10.7%	5.1
> COc1cc(NCCCC(C)N)c2ncccc2c1 (stereo not given)
→ -70.1*	?	4.3	?	1.1%	6.0
> C=CCn1c(SCC(=O)NC2(C)CCS(=O)(=O)C2)nc2ccccc21 (stereo not given)
→ 10.1	26.9%	-3.2	-0.3	13.1%	2.7
> Cc1ccc(-n2ncc3c(NCc4ccccn4)ncnc32)c(C)c1
→ -5.7	23.5%	-5.2	-21.2	20.6%	-1.3
> Cc1ccc(-n2sc3cc(F)ccc3c2=O)c(C)c1
→ -1.4	-49.3%[inhibitor]	-24.5	-5.2	.	-9.9
> Cc1ccc(-n2cccc2C(=O)NS(=O)(=O)c2ccc(C)cc2)cc1
→ 1.6	-62.4%[inhibitor]	0.2	-1.4	?	1.1
> Cc1cccc(OCC(=O)NCCNC(=O)c2cnccn2)c1
→ 8.5	30.8%	-1.9	-1.5	6.4%	1.0
> CCS(=O)(=O)c1ccc(O)c(NC(=O)COc2ccc(Br)cc2)c1
→ -13.1	-15.5%[15.4 µM]	-1.3	-10.6	-17.9%	-7.8
> O=C(CCCCl)Oc1ccc2cc(-c3ccc4ccccc4n3)c(=O)oc2c1
→ -4.8	8.3%[15.4 µM]	-0.7	4.6	11.1%	-4.3
> O=[N+]([O-])c1ccc(N=Cc2sc3ccccc3c2O)cc1
→ -8.0	-0.6%[15.4 µM]	-2.3	-5.0	1.6%	-3.8
> Cc1onc(-c2ccc(Cl)cc2Cl)c1-c1csc(N/N=C/c2ccccc2Cl)n1
→ -17.5	4.8%	6.8	0.8	-6.0%	-1.6
> O=C1NC(=Nc2ccc(Cl)cc2)/C(=C/c2ccco2)S1
→ 5.0	0.4%[15.4 µM]	-25.4	-9.7	1.5%	-1.0
> Cc1ccc(S(=O)(=O)N2CCN(C(=O)CN(Cc3ccco3)Cc3cccs3)CC2)cc1
→ 0.7	-7.1%[15.4 µM]	-9.2	-8.0	0.2%	-3.4
> COC(=O)c1ccccc1NC(=O)C(C)Oc1ccccc1 (stereo not given)
→ 23.4	18.3%	-2.4	27.1	2.4%	-3.2
> O=C1NC(=O)/C(=C\c2ccc(Oc3ccc([N+](=O)[O-])cn3)cc2)S1
→ ?	?	7.6	-15.6	-28.7%	1.8
> CCOc1cccc(C(=O)N(Cc2ccc(F)cc2)C2CCS(=O)(=O)C2)c1 (stereo not given)
→ 7.1	11.8%	7.1	4.6	-1.5%	1.0
> COCC(=O)N1CCC(Oc2ccc(C(=O)N3CCCCCC3)cc2)CC1
→ 2.2	17.9%	-6.6	-0.1	-6.2%	-7.5
> Fc1cccc(Cl)c1Cn1nnc2c(N3CCC4(CC3)OCCO4)ncnc21
→ 2.1	1.7%	-15.1	0.3	?	-3.4
> C=CCOc1c(Br)cc(CNn2cn[nH]c2=S)cc1OC
→ -16.1	-46.8%[inhibitor]	-7.4	3.1	-12.0%	2.1
> O=C(NCc1cccnc1)c1ccc(Br)s1
→ 2.3	-35.0%[inhibitor]	-11.3	-1.4	2.7%	-1.5
> CC1=C(C(=O)Nc2ccccc2)C(c2ccc(O)cc2)N2C(=O)CSC2=N1 (stereo not given)
→ 1.9	-2.9%	-17.9	-3.2	-6.2%	-1.0
> CS(=O)(=O)N1CCC(C(=O)NCc2ccc(Cl)cc2Cl)CC1
→ 10.7	-6.3%[15.4 µM]	2.1	5.7	4.7%	-0.3
> COc1ccccc1Oc1ccccc1[N+](=O)[O-]
→ 0.4	-9.1%[15.4 µM]	-6.9	-1.2	-13.8%	-1.5
> COc1ccc(CCNC(=O)COC(=O)c2cccs2)cc1
→ 10.1	23.5%[15.4 µM]	-8.4	2.6	3.8%	-1.3
> CCCCC(=O)Nc1c2c(nn1-c1ccc([N+](=O)[O-])cc1)CS(=O)(=O)C2
→ -0.4	3.6%	-6.1	0.9	7.2%	-1.0
> C1=CC2CCC1ON2c1ccccc1 (stereo not given)
→ 3.5	2.7%	-23.0	-1.3	6.2%	-5.2
> COc1cccc(COC(=O)c2c(C)nn(-c3ccccc3)c2Cl)c1OC
→ 28.6	-3.8%	13.1	32.9	-13.0%	1.4
> CCc1cc(=O)oc2cc(OCC(=O)NCC3CCC(C(=O)O)CC3)ccc12 (stereo not given)
→ -0.6	.	7.2	1.0	2.4%	6.8
> COc1ccc(CC(=O)Nc2ccc(S(=O)(=O)N3CCC(C)CC3)cc2)c(OC)c1
→ -4.4	-4.5%	-3.8	-1.7	-4.7%	12.7
> Cc1ccc(CNC(=O)CC2C(=O)Nc3c2c(=O)n(C)c(=O)n3Cc2ccccc2)cc1 (stereo not given)
→ -11.4	-2.5%	-24.3	-18.5	?	-2.6
> O=C(NCc1ccco1)C1CCN(Cc2ccc(F)cc2)CC1
→ 8.7	29.3%	-13.5	0.0	-6.3%	-4.3
> COCc1nnc(NC(=O)CS(=O)(=O)Cc2ccccc2)s1
→ 2.5	5.7%	0.7	-0.2	5.4%	-4.4
> Cc1ccc(S(=O)(=O)c2ccc(Cl)cc2)cc1S(=O)(=O)N1CCN(C)CC1
→ -6.9	21.9%	-3.8	-2.1	3.3%	0.8
> Fc1ccccc1-c1nc(NCCCN2CCOCC2)c2ccccc2n1
→ 4.9	-2.9%	-15.7	5.6	5.0%	-4.7
> CC(=O)c1c(C)[n+]([O-])c2ccc3c(non3O)c12
→ .	21.3%	-17.3	-0.5	-11.8%	-8.9
> O=C(NCC(=O)N1CCC2(CC1)NCCc1[nH]cnc12)c1ccccc1F
→ 2.9	1.0%	-7.9	-3.9	4.0%	1.8
> CCN1CCCC1CN(Cc1cc2ccc(C)cc2[nH]c1=O)C(=S)Nc1ccccc1C(=O)OC (stereo not given)
→ .	-13.0%[15.4 µM]	-16.5	-6.6	-2.7%	3.6
> O=C(CCSc1ccc(F)cc1)NNC(=O)c1ccc([N+](=O)[O-])cc1
→ -16.5	5.2%	-1.2	-1.7	-3.9%	-3.6
> NCC(=O)CCC(=O)O
→ 8.6	.	8.0	1.2	-5.7%	-3.8

More records follow.
Each structure is followed by: CtBP-E1A inh	gsp ag	D2 PAM	Six1-Eya2 inh	gsp antagonist	D2 agonist
> CN1CCN(S(=O)(=O)c2cccc(C(=O)N(C)Cc3c(F)cccc3Cl)c2)CC1
→ 0.0	8.8%	-4.8	2.0	3.1%	-1.2
> NS(=O)(=O)c1ccc(CCNC(=O)CCC(=O)c2cccs2)cc1
→ 6.3	?	0.3	2.8	-2.2%	-1.0
> CC(=O)Nc1cccc(-c2cnc(N)c(C(=O)c3cccnc3)n2)c1
→ ?	15.4%	-6.4	-27.7	3.3%	0.5
> COc1cc(CNc2ccc(CNc3ncn[nH]3)cc2)ccc1OCc1ccccc1
→ -8.9	23.2%	2.9	-16.0	-12.5%	2.3
> O=C(O)CC1SC(=Nc2ccccc2)N(c2ccccc2)C1=O (stereo not given)
→ 6.5	-1.3%	1.1	2.6	2.8%	-0.3
> CCN1CCN(C(=S)NCCc2ccccc2)CC1
→ -2.5	-12.3%	-13.7	4.7	13.6%	-2.1
> C/C(=N\NC(=O)CCCNc1cccc(C)c1)c1ccncc1
→ 10.0	-11.0%	-4.4	11.0	8.8%	-1.6
> COc1ccccc1CCNS(=O)(=O)c1c(C)n(C)c(=O)n(C)c1=O
→ 0.0	-53.6%[inhibitor]	-7.5	4.3	1.2%	-5.8
> O=C1CCC([N+](=O)[O-])C(c2ccc3c(c2)OCO3)N1 (stereo not given)
→ -6.5	-98.0%[inhibitor]	-37.2	-13.0	7.0%	-1.9
> Cc1ccc(NC(=O)C(C)OC(=O)c2ccc(NS(=O)(=O)c3ccc(F)c(F)c3)cc2)cc1 (stereo not given)
→ -1.0	-38.4%[inhibitor]	-2.4	0.9	?	2.8
> CCNC(=S)N/N=C(\C)c1cccc(C(F)(F)F)c1
→ -27.6	-2.3%[15.4 µM]	-8.8	-10.8	6.4%	-2.0

Screening results as filed in PubChem.
